Assay outcomes from PubChem.
PK Bst: Pyruvate Kinase; partly purified Bacillus stearothermophilus pyruvate kinase, luminescence ATP production; ribose 5-phosphate activator present at AC10; Potency, µM; actives 1.2% (n = 51,000); in the data active means potency below about 11 µM; inconclusive means mostly about 12 µM to 25 µM; inactive means weaker than that;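 the screen sought inhibitors and activators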;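 further: potency means the concentration at half of the fitted maximal effect; scaled between full activation by ribose 5 phosphate and full inhibition by luteolin; about four in five hits inhibit and the cells do not say which; series up to 57 µM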
YjeE inh: qHTS Assay for Inhibitors of YjeE; actives 0.05% (n = 71,000); Potency, µM; tRNA threonylcarbamoyladenosine biosynthesis protein TsaE (Escherichia coli (strain …; purified YjeE, fluorescence polarisation of a bound ADP probe; active = well fitted falling curve; inconclusive = weaker or top-dose-only fall, or a rising curve; inactive = flat or poorly fitted curve;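 further: top concentration of the series not given in the record; excess ADP was the control for the full effect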
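Fluorescence polarization of a BODIPY Texas Red–ADP probe (2 uM) bound to purified YjeE (10 uM) was read after 15 min room-temperature incubation with compounds. Loss of polarization marks inhibitors; ADP serves as titrated control.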
The depositor's hits bear a star; i = inactive; ? = inconclusive; / = no result given. An excerpt; rates above refer to the full screens.

SMILES	PK Bst	YjeE inh
COC(=O)c1ccc(N(CC(=O)NC2CCCC2)C(=O)CNC(=O)c2ccco2)cc1	>57	i
N=c1c2c(n(Cc3ccc(Cl)cc3)c3c1CCC3)CCC2	>57	i
CCCS(=O)(=O)N1CCC(C(=O)NCCCOC(C)C)CC1	>57	i
C=CCn1c(O)c(C(CC)=Nc2ccccc2NC(=O)CC)c(=O)[nH]c1=O	>57	i
O=c1c2ccccc2nc(-c2ccco2)n1CCCn1ccnc1	>57	i
CC(Nc1nc(N2CCCC2)nc2ccccc12)c1ccccc1 (stereo not drawn)	>57	i
O=C(CCn1c(=O)oc2ccccc21)Nc1ccon1	>57	i
COc1ccc(-c2cc3nc(C)cc(C)n3n2)c(OC)c1	>57	i
O=C1Oc2ccccc2C(=O)/C1=C\N1C(=O)N/C(=C\c2ccccc2O)C1=O	/	i
CCOC(=O)N1CCC(Nc2c(Nc3cccc(CC)c3)c(=O)c2=O)CC1	>57	i
CCCC[C@@H]1C[C@H]1C(NC(=O)Cc1ccccc1)c1ccc(Cl)cc1 (stereo partly drawn)	/	i
CCn1c(C2CC(=O)N(c3ccc(C)c(C)c3)C2)nc2ccccc21 (stereo not drawn)	/	i
Cc1cc(C)cc(NC(=O)CN(C)S(=O)(=O)c2cccc3nsnc23)c1	>11	i
CCc1nc(NCCCN2CCOCC2)c2oc3ccccc3c2n1	>57	i
CC12CN(Cc3ccccc3)CC(C)(CN(Cc3ccccc3)C1)C2=NO	/	i
O=C(CSc1nnc(-c2ccccc2)n1C1CCCCC1)N1CCCC1	>57	i
O=C(c1cnn2ccccc12)N(Cc1ccco1)C1CCCC1	/	i
O=C(Nc1cccc(F)c1)N1CCCC2(CCN(C(=O)c3cc(C(F)(F)F)cc(C(F)(F)F)c3)CC2)C1	/	i
CCOC(=O)c1cnc2ccc(C(=O)OC)cc2c1NCCN1CCOCC1	/	i
COc1ccc(N2C(=O)C3CCCN3C2c2ccc(C)o2)cc1Cl (stereo not drawn)	>57	i
CN(C)CCCNCCCCNC(=O)/C=N/O	>26	/
CCCn1nnnc1SCC(=O)c1ccc(NC(C)=O)cc1	>57	i
O=C(N[C@@H](c1ccccc1)[C@@H]1C[C@H]1C(=O)O)OCc1ccccc1	/	i
O=C(O)c1ccccc1SCc1ccc2c(c1)OCO2	>57	i
CN1/C(=C\P(=O)(N(C)C)N(C)C)C(C)(C)c2ccccc21	>57	?
O=c1c(-c2ccccc2)c(O)c2cccc3c2n1CCC3	>57	i
CN(C)Cc1c(O)ccc2occ(C(O)c3ccccc3)c12 (stereo not drawn)	/	i
CCOc1ccc(OCc2cccc(C(=O)O)c2)cc1	0.76*	i
COC(=O)C1=C(C)Nc2ncnn2C1c1ccc(OC(=O)c2ccccc2)cc1 (stereo not drawn)	>57	i
CCCCCCCCCCCC(=O)O[C@H](CC(=O)O)C[N+](C)(C)C	/	i
C=CCC(NCCCO)c1cccc(OC)c1OC (stereo not drawn)	>57	i
NS(=O)(=O)c1cc2c(cc1Cl)NC(C(Cl)Cl)NS2(=O)=O (stereo not drawn)	>26	/
Nc1nnc(CSCc2ccccc2)s1	>57	i
CC(C)CN(C(=O)CSc1nnc2c(Cl)cc(C(F)(F)F)cn12)C1CCS(=O)(=O)C1 (stereo not drawn)	>57	i
Cc1cccc(OCCc2nnc(N)s2)c1C	>57	i
Cc1ccc(-n2nc3cc(Cl)c(NC(=O)c4ccco4)cc3n2)cc1	>26	/
Cc1nc(NCCN2CCOCC2)c2oc3ccccc3c2n1	/	i
CCNc1nc(N)c(C(=O)c2ccc(Cl)s2)s1	2.2*	i
CCN1CCCC1CNC(=O)c1cn(CC)c2ccc(S(=O)(=O)N3CCCCCC3)cc2c1=O (stereo not drawn)	>57	i
COc1ccc(C(=O)NCc2nnc(SCC(=O)N3CCC(C)CC3)o2)cc1OC	>57	i
Cc1cc(C)c2c(c1)NC(=O)C2(O)CC(=O)c1cccs1 (stereo not drawn)	>57	i
CCOC(=O)C1C(=O)N(C(=O)c2cncc(Br)c2)CC1c1ccccc1 (stereo not drawn)	/	i
C=CCOc1ccc(/C=C/C(C)=N\O)cc1	/	i
O=S(=O)(O)c1nnc2sc3ccccc3n12	?	i
O=c1c(-c2cc(F)cc(F)c2)nc2cnc(N3CCOCC3)nc2n1Cc1ccc(F)cc1	/	i
COc1cccc(Nc2ncc3nc(-c4ccccc4)c(=O)n(C4CC4)c3n2)c1	/	i
Cc1cc(C(=O)Nc2ccccc2C#N)n(-c2ccccc2)n1	/	i
CCCn1c(=O)c2c(ncn2C)n(CCC)c1=O	/	i
COc1ccc(N2C(=O)C(Cl)=C(N(CCO)Cc3ccccc3)C2=O)cc1	>57	i
CCOc1ccc(C(C)(C)C)cc1S(=O)(=O)N1CC(C)OC(C)C1 (stereo not drawn)	>57	i
O=C(COc1ccc(S(=O)(=O)NC2CCCCC2)cc1)NCC1CCCO1 (stereo not drawn)	>57	i
CC(C)OCCCNC(=O)c1ccc(NS(C)(=O)=O)cc1	>57	i
COc1cc(SC)ccc1C(=O)Nc1ccc(S(=O)(=O)N2CCCC2)cc1	/	i
CCOC(=O)Cc1c(C)c2c(C)nn(-c3ccccc3)c2oc1=O	>57	i
Cn1c(=O)cc(OCCCC(=O)N2CCN(c3ccccn3)CC2)c2ccccc21	>57	i
O=C(C1CCCN(S(=O)(=O)c2cnc[nH]2)C1)N1CCN(Cc2ccccc2)CC1 (stereo not drawn)	/	i
Nc1nc2ccc(C(=O)NC3CCCCC3)cc2s1	>57	i
CCOC(=O)N1CCN(C(=O)c2cccn3c(=O)c4sccc4nc23)CC1	>57	i
Cc1nc2sc3c(c2c(=O)o1)CC(C)(C)OC3	>26	/
CC1Cc2ccccc2N1C(=O)CSc1nc2ccccc2o1 (stereo not drawn)	>57	i
More results
SMILES	PK Bst	YjeE inh
O=C(O)C1C2C=CC(O2)C1C(=O)Nc1ccc2c(c1)OCCO2 (stereo not drawn)	/	i
Cc1ccc(C)c(S(=O)(=O)N2CC(=O)Nc3ccccc32)c1	>57	i
O=C(CN1CCN(c2ccccc2)CC1)Nc1c(C(=O)C2CC2)oc2ccccc12	>57	i
CCOc1nc(-c2ccc(OC)cc2)ccc1-c1noc(C)n1	i	i
Cc1c(Nc2ncnc3c2cnn3-c2ccccc2)c(=O)n(-c2ccccc2)n1C	>57	i
Cc1cc(NCCCn2ccnc2)n2c(nc3ccccc32)c1C#N	>57	i
COc1ccc(N2C(=O)C3CCCN3C2c2ccccc2OC)cc1 (stereo not drawn)	/	i
CC(=O)NC1(c2nnnn2CCOC(=O)Nc2ccc(Cl)cc2)CCCCC1	>57	i
COc1cccc(C2C3=C(N=C4SCC(=O)N42)c2ccccc2CC3)c1OC (stereo not drawn)	/	i
COc1ccc(-c2nc3cnc(Oc4cccc(Cl)c4)nc3n(C3CC3)c2=O)cc1	/	i
CC1CN(C2CCN(S(=O)(=O)c3ccc4ccccc4c3)CC2)CC(C)O1 (stereo not drawn)	>26	/
Cc1ccc(-n2[nH]c(C)c(/C=N/n3c(C)nc4ccccc4c3=O)c2=O)cc1	>57	i
CCNC(=O)CC1C(=O)N(c2ccc(F)cc2)C(=O)N1CCC(C)C (stereo not drawn)	>57	i
CN(C)CCCNC(=O)C1CCNCC1	/	i
CC(C)CNC(=O)C1C2C=CC(C2)C1C(=O)O (stereo not drawn)	>57	i

Among those listed so far, 2 have a cyano group.
SMILES	PK Bst	YjeE inh
Cc1cc(C(=O)Nc2ccccc2C#N)n(-c2ccccc2)n1	/	i
Cc1cc(NCCCn2ccnc2)n2c(nc3ccccc32)c1C#N	>57	i

(list continues)
SMILES	PK Bst	YjeE inh
Cn1c(-c2ccc(Cl)cc2)cnc1N	/	i
O=C(CSc1nnc2c(Cl)cc(Cl)cn12)N1CCN(S(=O)(=O)c2ccccc2)CC1	>57	i
Cc1ccc(S(=O)(=O)N2CCC(C(=O)OC(C)C(=O)NCc3ccc4c(c3)OCO4)CC2)cc1 (stereo not drawn)	>57	i
O=c1[nH]c(=O)n([C@@H]2C[C@H](O)[C@H](CO)O2)cc1C(F)(F)F	/	i
CCCCCCC(=O)O	/	i
O=C(Cn1cnc2sc(-c3ccccc3)cc2c1=O)N1CCOCC1	>57	i
COc1nc2cc(C)ccc2cc1-c1noc(-c2cccnc2)n1	>57	i
Cc1ccc(NCc2nnc(SCc3ccc(C#N)cc3)n2Cc2ccco2)c(C)c1	>57	i
COc1ccc(Oc2ncc3nc(C)c(=O)n(Cc4cccs4)c3n2)cc1	/	i
Cc1cc(C)nc(N(C#N)Cc2ccccc2)n1	>57	i
CSCCC(NC(=O)c1occc1C)C(=O)O (stereo not drawn)	>57	i
CC(=O)c1sc(NC(=O)C2(F)C(F)(F)C(F)(F)C(F)(F)C(F)(F)C2(F)F)nc1C	>57	i
COCCNC(=O)C(c1ccc(C)o1)N(C(=O)c1snc(C(N)=O)c1N)c1ccc(C)cc1 (stereo not drawn)	>57	i
Cc1ccc2[nH]c(=O)c3cc(C(=O)N4CCN(C(=O)c5ccco5)CC4)sc3c2c1	/	i
CCCC1C(c2ccco2)NC(c2ccco2)CC1(C)O (stereo not drawn)	?	i
CCOc1cccc(=O)c2c(C)n(Cc3ccco3)c(C)c12	/	i
O=C(c1ccc2ccccc2n1)N1CCN(c2ccccc2)CC1	?	i
C=CCOc1ccc(/C=N/n2cncn2)cc1OC	/	i
S=c1nc2ccccc2c2nc(-c3ccccc3)[nH]n12	i	i
CC(=O)NCCNc1ncnc2ccc(-c3ccccc3C)cc12	/	i
Cc1ccc2nc3ccc(N4CCN(C)CC4)nn3c(=O)c2c1	/	i
O=C1CCCC2=C1C(c1ccc(Br)cc1)c1c([nH]c(=S)[nH]c1=O)N2 (stereo not drawn)	>57	i
CCCCCc1nc2sc3c(c2c(=O)n1N)CCC3	>26	/
O=C(O)[C@@H]1[C@@H](C(=O)NCc2ccncc2)[C@@H]2C=C[C@@H]1O2	/	i
CCc1ccccc1N(C(=O)Cn1nnc2ccccc21)C(C(=O)NCCOC)c1ccco1 (stereo not drawn)	>57	i
Cc1cc(NC(=O)COn2nnc3ccccc32)no1	>57	i
COc1ccc(C(=O)Nc2nncs2)c(OC)c1	/	i
CC1(c2ccc(OC(F)F)cc2)NC(=O)N(CC(=O)Nc2ccc3c(c2)OCO3)C1=O (stereo not drawn)	>57	i
CCCc1[nH]n(-c2nc3ccccc3s2)c(=O)c1C=NCC1CCCO1 (stereo not drawn)	/	i
Cc1cc(C(=O)CN2C(=O)CCC2=O)c(C)n1Cc1ccccc1	>57	i
O=C(CC1(O)C(=O)N(Cc2ccc3c(c2)OCO3)c2ccccc21)c1ccccc1 (stereo not drawn)	>57	i
O=C(O)C1CCCN1C(=O)Oc1ccccc1 (stereo not drawn)	>57	i
CC(C)(C)C(=O)Nc1c2c(nc3c1CCC3)CCCC2	>57	i
CCOCCCNS(=O)(=O)c1ccc2c(c1)OCCO2	>57	i
O=C1CN(S(=O)(=O)c2ccc(F)cc2)CC(=O)N1CCc1ccccc1	>57	i
CCOC(=O)c1cccc(NC(=O)CN2CCN(c3ccc(OC)cc3)CC2)c1	>57	i
COc1ccccc1Cc1noc(-c2cc(Cl)ccc2OC)n1	>57	i
COc1ccc(C2NCCc3cc(OC)c(OC)cc32)cc1OC (stereo not drawn)	>57	i
Cc1noc(C)c1C(=O)N1CCC[C@@]2(CCN(c3ccccc3)C2)C1	/	i
COc1cc2nc(N3CCNCC3)nc(N)c2cc1OC	>57	i
Cc1cc(N2C(=O)C(=O)/C(=C(/O)c3ccc(F)cc3)C2c2ccc(F)cc2)no1 (stereo not drawn)	>26	/
Cc1ccc(S(=O)(=O)NC2=NCN(C3CCCCC3)CN2)cc1	>57	i
CCCn1c(=O)c2ccccc2n2c(SCC(=O)c3ccc(F)cc3)nnc12	>57	i
CCOC(=O)CC(=O)Nc1ccc(Br)cc1C(=O)O	/	i
Cc1ccc2[nH]c(=S)cc(C)c2c1	>57	i
COc1ccc2c(=O)c3c(=O)n(Cc4ccco4)c(C4CCCCC4)nc3oc2c1	>57	i
Cc1oc2cc(O)ccc2c(=O)c1Oc1ccccc1Br	/	i
CCn1c(SCC(=O)Nc2ccccc2C(=O)OC)nnc1-c1ccoc1C	>57	i
CC(C)CC(C(=O)Nc1oc(-c2ccco2)c(-c2ccco2)c1C#N)N1C(=O)c2ccccc2C1=O (stereo not drawn)	>57	i

Molecules above with a Cl atom:
SMILES	PK Bst	YjeE inh
N=c1c2c(n(Cc3ccc(Cl)cc3)c3c1CCC3)CCC2	>57	i
CCCC[C@@H]1C[C@H]1C(NC(=O)Cc1ccccc1)c1ccc(Cl)cc1 (stereo partly drawn)	/	i
COc1ccc(N2C(=O)C3CCCN3C2c2ccc(C)o2)cc1Cl (stereo not drawn)	>57	i
NS(=O)(=O)c1cc2c(cc1Cl)NC(C(Cl)Cl)NS2(=O)=O (stereo not drawn)	>26	/
CC(C)CN(C(=O)CSc1nnc2c(Cl)cc(C(F)(F)F)cn12)C1CCS(=O)(=O)C1 (stereo not drawn)	>57	i
Cc1ccc(-n2nc3cc(Cl)c(NC(=O)c4ccco4)cc3n2)cc1	>26	/
CCNc1nc(N)c(C(=O)c2ccc(Cl)s2)s1	2.2*	i
COc1ccc(N2C(=O)C(Cl)=C(N(CCO)Cc3ccccc3)C2=O)cc1	>57	i
CC(=O)NC1(c2nnnn2CCOC(=O)Nc2ccc(Cl)cc2)CCCCC1	>57	i
COc1ccc(-c2nc3cnc(Oc4cccc(Cl)c4)nc3n(C3CC3)c2=O)cc1	/	i
Cn1c(-c2ccc(Cl)cc2)cnc1N	/	i
O=C(CSc1nnc2c(Cl)cc(Cl)cn12)N1CCN(S(=O)(=O)c2ccccc2)CC1	>57	i
COc1ccccc1Cc1noc(-c2cc(Cl)ccc2OC)n1	>57	i
